# HIV TAR-Tat: TAR RNA-Tat peptide displacers, HIV-1, primary screen, biochemical, FRET, FAM/TAMRA-labeled Tat | HIV-1 TAR RNA, Tat peptide displacement FRET; hits give high values | actives 0.6% (n = 100,000) | AID 1259389, 2018 | z-score (concentration not given with the values);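 also: score is relative to mean and SD of negative controls; some compounds called inactive have numbers as strong as hits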
# CDC25B CDK2 inh: primary biochemical HTRF screen for blockers of M-phase inducer phosphatase 2 binding to CDK2/cyclin A | P30305+P24941 | HTRF CDC25B-CDK2/CyclinA binding, anti-His/anti-Flag; hits give high values | z-score (test concentration not listed) | actives 0.72% (n = 94,000) | AID 1259370, 2018;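 also: score is relative to mean and SD of negative controls; strong numbers were not always called active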
# Numbers without * were called inactive; x = not tested or not shown; & = joins results of further samples.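 The calls were made as follows: active = z-score from 3 up in half or more of its runs; inactive = the rest.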
# The first five records as a preview:
SMILES,HIV TAR-Tat,CDC25B CDK2 inh
CC(=O)Nc1nonc1-c1nnc(SCC(=O)NC2CCCCC2)n1C,1.3,-1.5
CC(C)CCNC(=O)C1CCN(c2nnc(N3CCCCC3=O)s2)CC1,1.8,x
CC(C)c1ccc(Oc2nc3ccccc3n3c(=O)[nH]nc23)cc1,-1.3,-1.7
Cc1ccc(C)c(-c2csc3c(=O)[nH]cnc23)c1,0.66,-1.1
CSc1nc2c(c(=O)n(C)c(=O)n2C)n1C,x,-0.19

# The listing (from the top)
SMILES,HIV TAR-Tat,CDC25B CDK2 inh
CC(=O)Nc1nonc1-c1nnc(SCC(=O)NC2CCCCC2)n1C,1.3,-1.5
CC(C)CCNC(=O)C1CCN(c2nnc(N3CCCCC3=O)s2)CC1,1.8,x
CC(C)c1ccc(Oc2nc3ccccc3n3c(=O)[nH]nc23)cc1,-1.3,-1.7
Cc1ccc(C)c(-c2csc3c(=O)[nH]cnc23)c1,0.66,-1.1
CSc1nc2c(c(=O)n(C)c(=O)n2C)n1C,x,-0.19
COc1ccc(N(Cc2cc(CN3CCOCC3)cs2)S(=O)(=O)c2cccs2)cc1,0.52,x
O=C1C=CC(=O)N1CCc1cccs1,x,-2
CNC(=O)C1CCN(c2nnc(-n3c(C)ccc3C)s2)CC1,0.73,-0.24
Cc1nc2sc3c(N4CCC(C)CC4)ncnc3c2c2c1COC(C)(C)C2,0.58,-1.4
COc1ccc(-c2n[nH]c3c2C(c2ccc(Cl)cc2)NC3=O)cc1 (configuration not stated),-1.4,x
O=C1CCc2cc(S(=O)(=O)NC(Cc3ccccc3)C(=O)N3CCc4ccccc4C3)ccc2N1 (configuration not stated),x,-2
Cc1ccc2oc3c(c(=O)c2c1)C(c1cccc(O)c1)N(Cc1ccc(F)cc1)C3=O (configuration not stated),1.3,2
Cc1ccc2oc3c(c(=O)c2c1)C(c1cccs1)N(CCCN(C)C)C3=O (configuration not stated),-0.6,x
Cc1ccc(-n2nnc(S(=O)(=O)c3ccccc3)c2C)cc1,2.6,-1.8
Fc1ccc(-c2c[nH]c(=S)o2)cc1,-1.2,-1.2
O=C(CCCn1sc2ccccc2c1=O)N1CCN(c2ccccn2)CC1,2,-2.8
COc1ccc(Br)c(-c2nnc(-c3cccc(Cl)c3)o2)c1,-0.41,-2.4
CC(C)CNCc1ccc2c(c1)n(C)c(=O)n2C,-0.82,-1.3
CCOc1c(N2CCc3ccccc3C2)c(=O)c1=O,1.7,x
CCOC(=O)C1CCC(CNC(=O)Nc2nnc(N3CCCCC3C)s2)CC1 (configuration not stated),0.74,0.59
CCCNC(=O)Cn1ncc2ccsc2c1=O,0.13,-1.7
O=C(Nc1ccccc1-c1nc(-c2ccc(Cl)cc2)no1)C(F)(F)F,x,0.25
Cc1cc(-c2ccc(S(=O)(=O)N3CCN(c4cc(Cl)ccc4C)CC3)cc2)on1,0.84,x
O=C1CCc2cc(NC(=O)Oc3ccccc3)ccc2N1,-1.4,x
Cc1cc(NC(=O)CN(C2=NC3CS(=O)(=O)CC3S2)c2ccc(C)c(C)c2)n[nH]1 (configuration not stated),1.9,-0.38

# Remaining list, next part
SMILES,HIV TAR-Tat,CDC25B CDK2 inh
O=C1CN(C(=O)c2ccc(Br)o2)C(c2ccccc2)c2cc(F)ccc2N1 (configuration not stated),x,-1.1
CC(C)Oc1ccc(-c2cn3nc(C(C)C)sc3n2)cc1,1.4,1
Cc1ccc(C2C3=C(CC(C)(C)CC3=O)NC3=C2C(=O)CC(C)(C)C3)cc1,0.89,-0.72
CC(C)CNC(=O)c1cnc(N2CCOCC2)nc1,1.1,x
COc1ccc(C2CC(c3ccc(C)cc3)Nc3nc(N)nn32)cc1OC (configuration not stated),0.1,-0.95
CCCN1C(=O)CN(C2CCC(C)CC2)C(=O)C1c1ccc(C)cc1 (configuration not stated),x,-1.8
CC(=O)N1N=C(c2cccc(Br)c2)OC1c1ccc([N+](=O)[O-])o1 (configuration not stated),0.43,x
O=C(NCCCN1CCCCC1)C1CCN(c2nc3ccccc3n3cccc23)CC1,2.2,x
C[C@@H](CN1CCC(Cc2ccccc2)CC1)[C@@H](O)c1ccc(O)cc1,x,-0.63
Cc1ccc(S(=O)(=O)NCC2OCCc3ccccc32)cc1 (configuration not stated),0.72,0.26
Cc1cc2ncc(N3CCN(C4CCCCC4)CC3)nc2cc1C,2.3,-0.9
NC(=O)OC(c1ccccc1[N+](=O)[O-])P(=O)(c1ccccc1)c1ccccc1 (configuration not stated),x,-0.63
CCC(=O)Nc1ccccc1C(=O)N1CCN(Cc2ccccc2)CC1,x,-2.1
COc1ccc(C(O)(C2CCCCC2)C(CN2CCOCC2)c2ccccc2)cc1 (configuration not stated),0.53,-0.98
Cc1ccc(CN2CCC(CNS(=O)(=O)c3cnc[nH]3)CC2)cc1,1,x
CN(C(=O)c1noc2c1CCc1sccc1-2)c1ccccc1F,0.43,x
COc1ccc(N2C(=O)CCS2(=O)=O)cc1S(=O)(=O)N1CCc2ccccc2C1,1.2,0.74
O=C(Cn1c(=O)oc2ccccc21)NC1CC1,0.98,x
COCCN=C1NS(=O)(=O)C(c2ccc(C(C)C)cc2)=C1C,-1.4,0.63
CC(C)C(=O)Nc1c(C(=O)N2CCN(C)CC2)oc2ccccc12,1.8,x
O=C(Cn1cnc(S(=O)(=O)N2CCCC2)c1)N1CCCN(Cc2ccc(F)cc2)C1,-0.81,x
O=C(O)CNc1nc(-c2ccccc2)nc2ccccc12,x,-1.1
Cc1oc(-c2ccccc2Cl)nc1Cn1cccc1C1=NC(c2ccccc2)CO1 (configuration not stated),-0.56,-0.95
COc1ccc(OC)c(C2CC(=O)N3CN(C4CCCCC4)CSC3=C2C#N)c1 (configuration not stated),-0.96,5.3*
CNC(=O)c1ccc2c(c1)CCN2S(=O)(=O)c1ccc(Cl)cc1,0.32,-0.95

# Compound profiles (already shown):
# `CN(C(=O)c1noc2c1CCc1sccc1-2)c1ccccc1F` is entered as HIV TAR-Tat: 0.43; CDC25B CDK2 inh: x
# `Cc1oc(-c2ccccc2Cl)nc1Cn1cccc1C1=NC(c2ccccc2)CO1` (configuration not stated) is entered as HIV TAR-Tat: -0.56; CDC25B CDK2 inh: -0.95
# `CCC(=O)Nc1ccccc1C(=O)N1CCN(Cc2ccccc2)CC1` is entered as HIV TAR-Tat: x; CDC25B CDK2 inh: -2.1

# Other results.
SMILES,HIV TAR-Tat,CDC25B CDK2 inh
CCOC(=O)c1c(C)c(C#N)c(N)n1-c1ccc(C)cc1,x,-1.1
O=C1c2ccccc2-c2onc3c(Br)cc(NCc4ccccc4)c1c23,-4.2,1.4
CC(C(=O)N1CCCCC1)N1c2cccc3cccc(c23)S1(=O)=O (configuration not stated),0.41,-0.86
COc1ccccc1NC(=O)Nc1nnc(CC(=O)N2CCc3ccccc32)s1,1.1,x
COc1ccc(N2CCN(c3ccc4nnc(C)n4n3)CC2)cc1,1.6,-0.5
CS(=O)(=O)Oc1ccc([I+]c2ccc(OS(C)(=O)=O)cc2)cc1,x,-2.8
CCNC(=O)CC1C(=O)N(c2ccc(F)cc2)C(=O)N1Cc1cccs1 (configuration not stated),x,-0.46
COc1ccc(N2C(=O)C3N=NN(CC(=O)Nc4cc(F)ccc4F)C3C2=O)cc1OC (configuration not stated),1.2,x
NNC(=O)C(=O)Nc1ccc(Cl)cc1Cl,x,-2.5
CC(=O)N1c2ccc(S(=O)(=O)N3CCCC3)cc2CC1C(=O)NCCN1CCCC1 (configuration not stated),1.1,x
Cn1nc(C(=O)Nc2ccc3c(c2)OCCO3)c2c1-c1ccccc1S(=O)(=O)C2,1.1,-1.1
CCC(C)NC(=O)Cn1c(=O)n(CC2CCC(C(=O)N3CCCC3)CC2)c(=O)c2sccc21 (configuration not stated),0.29,x
O=C1c2cccnc2C(=O)N1Cc1ccc(S(=O)(=O)Nc2cccnc2)s1,1.3,x
COc1cccc(C(c2c[nH]c3ccccc23)c2c[nH]c3ccccc23)c1,-0.13,-0.33
O=C(Cn1ncn2nc3c(c2c1=O)CCCC3)Nc1cccc(Cl)c1,1.8,x
COc1ccc(Cc2nc3c4cnn(-c5ccccc5Cl)c4ncn3n2)cc1OC,1.6,-2
O=S1(=O)C=CC(Sc2nnc[nH]2)C1 (configuration not stated),1.4,-0.29
CC(=O)N1c2ccccc2C(N(C(=O)c2cccs2)c2ccccc2)CC1C (configuration not stated),-0.48,-0.54
CCOCCOC(=O)c1cccc(NC(=O)C(C(C)C)N2C(=O)c3ccccc3C2=O)c1 (configuration not stated),x,-0.9
O=C(O)C1CCCN1C(=O)Nc1ccc(Cl)cc1 (configuration not stated),0.86,0.65
O=S(=O)(Nc1ccc(-c2ccc(N3CCOCC3)nn2)cc1)c1cccnc1,0.74,x
Cc1cc(NS(=O)(=O)c2ccc(Nc3nc(-c4ccncc4)cs3)cc2)no1,0.44,-2.1&-13
O=C(CN1C(=O)CSc2ncccc21)NCCN1CCCC1,0.05,2.6
CC1(O)c2ccccc2C(=O)N1Cc1ccccc1 (configuration not stated),x,-0.38
COc1ccc(-c2cc(-c3nc(-c4ccc(OC)cc4)no3)[nH]n2)cc1,0.06,x

# Three of these compounds in a different format:
canonical_smiles | HIV TAR-Tat | CDC25B CDK2 inh
O=C(CN1C(=O)CSc2ncccc21)NCCN1CCCC1 | 0.05 | 2.6
Cn1nc(C(=O)Nc2ccc3c(c2)OCCO3)c2c1-c1ccccc1S(=O)(=O)C2 | 1.1 | -1.1
O=C(O)C1CCCN1C(=O)Nc1ccc(Cl)cc1 (configuration not stated) | 0.86 | 0.65

# (further entries)
SMILES,HIV TAR-Tat,CDC25B CDK2 inh
CC(=O)Nc1ccc(S(=O)(=O)Nc2cccc3cccnc23)cc1,x,-0.32
Cc1ccc(Sc2ccc([N+](=O)[O-])cc2)cc1,x,-0.26
O=C1OC/C(=C(/O)c2ccc(Br)cc2)C1=O,x,0.2
O=C(c1ccccc1)c1ccccc1N1C(=O)C=CC1=O,x,-1.6
O=C(O)CCn1c(=O)oc2ccccc21,x,-2.9
COCCNC(=O)CN1C(=O)c2cccc3cccc1c23,0.56,-0.39
CCOC(=O)c1c(C)[nH]c(C)c1S(=O)(=O)N1CCCC(C(=O)NCCC2=CCCCC2)C1 (configuration not stated),-2.1,x
CCCNC(=O)Nc1cc2[nH]c(=O)[nH]c2cc1C,-0.09,x
CCOC(=O)c1c(C)oc2nc(C)nc(Nc3cccc(F)c3)c12,0.06,x
O=C(Cn1cc2c(n1)CCCCCC2)N1CCCC1,1.3,0.85
C=CCOc1ccc(NC(=O)CN2c3ccc(Br)cc3-c3ccccc3S2(=O)=O)cc1,0.24,-0.09
CSc1ccc(/C=C2/C(C)=C(CC(=O)O)c3cc(F)ccc32)cc1,1.6,x
CCC(=O)N1CCc2cc(Br)cc(S(=O)(=O)N3CCN(CC)CC3)c21,x,-0.94
COC(CNC(=O)C(=O)Nc1cccc(C(F)(F)F)c1)OC,x,-1.1
CC1Sc2ccc(S(=O)(=O)NCCC3=CCCCC3)cc2NC1=O (configuration not stated),0.86,x
CC1CCCN(C(=O)CS(=O)(=O)c2ccc3c(c2)S(=O)(=O)N=CN3)C1 (configuration not stated),1.1,x
Cc1c(S(=O)(=O)NCc2ccc(S(N)(=O)=O)cc2)sc2ccc(Cl)cc12,x,-1.7
COc1cc(C2SC(NC(C)=O)=NN2C(C)=O)cc(Br)c1OC(=O)c1cccs1 (configuration not stated),2.1,-0.27
Cn1c(=O)sc2cc(NC(=O)COc3ccc(Cl)cc3)ccc21,0.04,x
COc1ccc(OC)c(NC(=O)Nc2c(C)nc3nc[nH]n3c2=O)c1,1.6,x
CC(=O)O[C@H]1C[C@@H](OC(C)=O)C(C)(C)C2C[C@@H](OC(C)=O)[C@]3(C)C(CC[C@@]4(C)[C@H](c5ccoc5)OC(=O)[C@H]5O[C@]543)[C@]21C (some centres not stated),0.7,x
CCn1c(NCc2ccc(O)cc2)nc2ccccc21,1.9,-1.4
CCCn1cc(S(=O)(=O)c2ccc(Cl)cc2)c(=O)c2cc(F)c(N3CCN(C)CC3)cc21,0.02,x
Cc1nn(CCCC(=O)O)c(=O)c2cc3occc3n12,0.16,1.4
Cc1[nH]c2ccccc2c1C1=CCN(S(=O)(=O)c2cccc3nsnc23)CC1,1.8,-1.2

# Additional results.
SMILES,HIV TAR-Tat,CDC25B CDK2 inh
COc1ccc(OC)c(NC(=O)C2CC(=O)Nc3ncnn32)c1 (configuration not stated),-1.4,-0.8
CCCSCCCNC(=O)c1oc2c(c1C)-c1[nH]ncc1CC2,0.42,-1.3
NC(=O)Cn1c(=O)n(Cc2ccc(Cl)cc2)c(=O)c2cccnc21,-0.39,-0.95
O=C(c1ccc2c(=O)n3c(nc2c1)CCCC3)N1CCCCC1,3.4,x
CC1(C)CC(=O)C2=C(C1)OC(N)=C(C#N)C2c1ccc(-c2ccc(Cl)cc2)o1 (configuration not stated),x,0.4
O=C1C(=O)N(CCCn2ccnc2)C(c2cccnc2)/C1=C(\O)c1ccc(F)cc1 (configuration not stated),-0.19,-2.6
Nc1c(C(=O)N2CCCC2)sc2nc(N3CCCC3)c3c(c12)CCCC3,-0.74,-1.3
CN(C)S(=O)(=O)c1ccc2c(c1)N(CC(=O)N1CCN(c3ccc(F)cc3)CC1)CCS2,-0.41,x
Cc1nc2sccn2c(=O)c1S(=O)(=O)Nc1ccccc1,2.4,x
CN1C(C(=O)NCc2ccc3c(c2)OCO3)=CC(c2cccs2)=NS1(=O)=O,-1.1,-0.83
O=C(Nc1cc(Br)ccc1O)c1noc2c1CCCCC2,x,-0.19

# Source: PubChem

# No enrichment for hits; 0.94% or so of the library scored in one or more.
